Menin MLL FP FL: qHTS Assay for Inhibitors Targeting the Menin-MLL Interaction in MLL Related Leukemias: Competition With Fluorescein Labeled MLL-derived Peptide | FP activity change, % at 61.4 µM | AID 1766, 2009 | 290,000 tested, under 10 active | Fluorescence polarization, fluorescein-MLL peptide displacement from menin; inconclusive = falling polarisation curve, or a change in total fluorescence; inactive = total fluorescence flat and polarisation flat or rising; no compound was filed as active; the % refers to the polarisation; negative = inhibition;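 note: % of control where 0% means no effect; inhibitors lower the polarisation; unlabelled MLL peptide was the positive control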
CtBP-E1A inh: qHTS Assay for Inhibitors of the CtBP/E1A Interaction; 340,000 tested, 0.49% active; activity change, % (test concentration not listed); AID 651724, 2012; CtBP / adenovirus E1A interaction (AlphaScreen); AlphaScreen GST-E1A/His-CtBP binding, 1536-well; hits give low values; control for the full effect not named in the record; in the data active means activity change below about -65%; inconclusive means about -30% to -65%; inactive means above about -30%; note: % is set by controls: 0 for no effect and ±100 for the full control effect; compound concentration not given in the record
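Protein mix (5X: 125 nM each GST-E1A, His-CtBP) was incubated with pinned compound 2 h at 37 deg C in dark, in 50 mM Tris pH 8.0 buffer with 300 mM NaCl. Glutathione donor and nickel acceptor beads followed; AlphaScreen signal read after 1 h.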
gsp antag: qHTS for Antagonists of gsp, the Etiologic Mutation Responsible for Fibrous Dysplasia/McCune-Albright Syndrome: qHTS; gsp-mutant cells, cAMP HTRF, 30 min; control for the full effect not named in the record; Potency, µM (titrated, usually from 76.9 µM), without a hit: at the top dose activity change, negative = inhibition, actives largely listed as inhibitors; 340,000 tested, 0.4% active; active = falling curve of any shape with a large fitted effect; inconclusive = falling curve, mostly with a smaller effect; inactive = flat or rising curve; cell line not stated here;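 note: intracellular cAMP measured with PDE inhibitor Ro 20-1724 present during compound exposure; potency is the fitted concentration of half-maximal effect; % is set by controls: 0 for no effect and ±100 for the full control effect; nearly all actives have a fitted effect of over 65% in size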
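Cells, 2000/well, grown 16–24 h in DMEM 10% FBS with 0.5 mg/ml G418, then compounds plus […] (300 uM addition stock), 30 min at 37C. cAMP read by HTRF (cAMP-d2 and anti-cAMP antibody-K in lysis buffer) after 30 min RT.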
Sfp inh: qHTS Assay for Inhibitors of Bacillus subtilis Sfp phosphopantetheinyl transferase (PPTase); Biochemical Sfp PPTase activity, qHTS; Potency, µM, for inactives: max response, negative = inhibition, hits mostly inhibitors; 4'-phosphopantetheinyl transferase ffp (Bacillus subtilis), Q9F4F7; AID 1490, 2009; 310,000 tested, 3.5% active; active = well fitted inhibition curve with a large enough effect; inconclusive = small, poorly fitted or top-dose-only effect, or another doubt; inactive = no such curve, though single readings can be large or run the other way;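 note: the enzyme is Sfp with the accession as filed and its product quenches rhodamine fluorescence; potency is the fitted concentration of half-maximal effect; 0% = enzyme reaction without inhibitor and -100% = no enzyme wells; top concentration of the series not given in the record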
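With Hepes-Na pH 7.6 buffer containing 10 mM MgCl2, Sfp (15 nM) modified BHQ-2-YbbR (12.5 uM) using rhodamine-CoA (5 uM). Two reads 30 minutes apart at 525/598 nm yielded each well's rate.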
ClpP mod: qHTS Assay for Activators of ClpP; ATP-dependent Clp protease proteolytic subunit (Bacillus subtilis (strain 168)), P80244; purified B. subtilis ClpP, FRET peptide cleavage, 20 min; Potency, µM (top dose mostly 57.5 µM), for inactives: top-dose activity change, negative = active; 340,000 tested, 1.9% active; AID 651965, 2013; active = well fitted falling curve with a large enough effect; inconclusive = small, poorly fitted or top-dose-only effect; inactive = no such curve, though single readings can be large or run the other way; note: potency is the fitted concentration of half-maximal effect; the source files actives as falling curves though it sought activators and does not explain the sign; nearly all actives have a fitted effect of over 65% in size; many hits overshoot -100%
Target sequence (P80244 whole entry, looked up): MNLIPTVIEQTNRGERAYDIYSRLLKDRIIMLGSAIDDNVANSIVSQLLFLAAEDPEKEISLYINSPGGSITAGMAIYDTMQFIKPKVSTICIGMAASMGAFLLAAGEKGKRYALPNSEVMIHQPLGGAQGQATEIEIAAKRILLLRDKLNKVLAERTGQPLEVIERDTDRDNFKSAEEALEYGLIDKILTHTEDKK
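ClpP 10 microg/mL final, pH 8 Tris/KCl buffer with BSA, glycerol, Tween-20; compound pinned in; FRET-FV substrate; RT 20 min; Ex320/Em430; ΔFRET vs ADEP 5.8 microM, DMSO, no enzyme.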
TRPV1 potentiator: HTS Assay for Compounds that Act as Potentiators of the Vanilloid Receptor 1. Transient receptor potential cation channel subfamily V member 1 (Homo sapiens), Q8NER1. TRPV1-expressing cells, Fluo-8 calcium influx, capsaicin EC20 potentiation; host cell line not named in the record; control for the full effect not named in the record. potentiation, % at 8.33 µM. 320,000 tested, 0.02% active; active means potentiation above 80%; inconclusive means 30% to 80%; inactive means below 30%; note: 0% is about no effect
Target sequence (Q8NER1 whole entry, looked up): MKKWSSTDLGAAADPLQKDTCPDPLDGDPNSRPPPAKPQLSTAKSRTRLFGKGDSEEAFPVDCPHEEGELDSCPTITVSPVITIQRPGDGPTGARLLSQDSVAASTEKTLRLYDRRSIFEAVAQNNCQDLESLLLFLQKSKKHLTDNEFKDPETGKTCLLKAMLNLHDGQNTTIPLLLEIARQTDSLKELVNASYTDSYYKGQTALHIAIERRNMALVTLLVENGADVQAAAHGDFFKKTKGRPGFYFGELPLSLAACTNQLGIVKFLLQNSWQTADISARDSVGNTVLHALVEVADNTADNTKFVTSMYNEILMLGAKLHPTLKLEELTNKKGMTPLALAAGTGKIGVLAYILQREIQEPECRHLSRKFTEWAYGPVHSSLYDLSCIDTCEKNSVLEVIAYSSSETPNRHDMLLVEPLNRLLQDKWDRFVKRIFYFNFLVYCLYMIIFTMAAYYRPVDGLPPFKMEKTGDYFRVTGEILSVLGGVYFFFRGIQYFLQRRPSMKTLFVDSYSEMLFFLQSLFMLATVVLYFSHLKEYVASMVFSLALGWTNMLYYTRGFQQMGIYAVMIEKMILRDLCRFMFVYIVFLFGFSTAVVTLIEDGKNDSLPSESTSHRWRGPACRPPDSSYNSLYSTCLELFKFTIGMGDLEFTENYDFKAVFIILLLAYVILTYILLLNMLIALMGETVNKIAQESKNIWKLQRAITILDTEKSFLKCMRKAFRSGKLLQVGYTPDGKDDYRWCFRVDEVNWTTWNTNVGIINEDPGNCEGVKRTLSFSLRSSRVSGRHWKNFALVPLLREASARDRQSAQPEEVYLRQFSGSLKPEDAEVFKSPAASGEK
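Cells expressing TRPV1 were dye-loaded with Fluo-8 and read kinetically: 10 s baseline, 3 min after compound (agonist portion), then 2 min after EC20 capsaicin (allosteric enhancer portion). Calcium-bound dye fluorescence at 480/520 nm.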
gsp ag: qHTS for Agonist of gsp, the Etiologic Mutation Responsible for Fibrous Dysplasia/McCune-Albright Syndrome: qHTS. AID 624287, 2012. 340,000 tested, 0.13% active. Potency, µM (series often up to 76.9 µM), inactives show at the top dose activation (cAMP increase), most hits filed as activators. gsp mutant cells, cAMP HTRF, 30 min; control for the full effect not named in the record; active = well fitted activation curve with a large enough effect; inconclusive = small, poorly fitted or top-dose-only effect, or another doubt; inactive = no such curve, though single readings can be large or run the other way; cell line not stated here;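 note: phosphodiesterase inhibitor Ro 20-1724 added with compounds to block cAMP breakdown; potency is the fitted concentration of half-maximal effect; nearly all actives have a fitted effect of over 60% in size; about a fifth of the inactives were tested at one dose only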
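Cells stably selected in G418 were plated at 2000/well, grown 16-24 hr, then given compounds in DMSO with the PDE inhibitor […] (300 uM solution added) for 30 min at 37C; cAMP was read by HTRF.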
The depositor's hits bear a star; ? = inconclusive; · = no result given; [ ] = dose if it differs, or a comment.

SMILES	Menin MLL FP FL	CtBP-E1A inh	gsp antag	Sfp inh	ClpP mod	TRPV1 potentiator	gsp ag
O=C(Nc1ccc(S(=O)(=O)N2CCCCC2)cc1)C1CCN(C(=O)c2ccc(F)cc2)CC1	·	0	-10%	·	0.1%	-2	24%[15.4 µM]
COC(=O)C1=C(C)NC(=O)NC1c1ccc(N2CCC(c3ccccc3)=N2)cc1 (stereo not given)	?	-4	·	-14%	·	0	-3%[15.4 µM]
CCc1ncc(CO)n1Cc1cccc2ccccc12	·	1	·	·	1.1%	·	22%
CCC(C)c1ccccc1OCCCCN1CCCC1 (stereo not given)	-3.4	2	7%	14%	-0.8%	6	4%
COc1ccc(OC)c(/C=N/NC(=O)CNC(=O)c2ccc(S(=O)(=O)N3CCCC3)cc2)c1	-0.3	-11	-2%	-5%	·	16	-8%
CCOc1ccc(/C=N/N2C(C)CCCC2C)cc1 (stereo not given)	2.5	0	12%	-23%	·	0	-7%
CCn1c(COc2ccc(C)cc2)nnc1SCc1nc2ccccc2[nH]1	3.3	2	-17%	-1%	-2.4%	-1	-19%
O=C(CNc1ccccc1)NN=C1CCCC1	-2.2	0	9%	15%	·	8	16%[15.4 µM]
Cc1ccc(NS(=O)(=O)c2cc(C(=O)N(C)C3CCN(C)CC3)ccc2Cl)cc1Cl	·	·	-11%	·	1.4%	·	10%
CCOc1ccc(S(=O)(=O)N(CC(=O)NCc2ccncc2)c2ccc(C)cc2)cc1	-0.8	0	-3%	11%	0.0%	-9	-1%[15.4 µM]
O=C(c1ccc(COc2c(F)c(F)c(F)c(F)c2F)o1)N1CCN(Cc2ccc3c(c2)OCO3)CC1	2.5	-7	-2%	-10%	1.1%	-33	1%
Cc1nnc(SCC(=O)NC2CCCc3c2cnn3-c2ccc(F)cc2F)o1 (stereo not given)	·	-2	6%	7%	-0.4%	20	-86%[inhibitor]
COCCNC(=O)C(c1ccc(C)o1)N(C(=O)Cn1nnc2ccccc21)c1ccccc1 (stereo not given)	2.6	·	-16%	19%	1.4%	11	11%
Cc1cc(-c2ccccc2)nc2oc3c(c12)NC(=O)CN(c1ccccc1)C3=O	1.7	-7	-20%	19%	·	-3	6%[15.4 µM]
CN(Cc1ccccc1)C(=O)c1cccc(NC(=O)c2ccco2)c1	5.2	-1	-6%	8%	1.3%	-7	23%
COc1ccc2c(c1)c(C(C)=O)c(C)n2-c1ccc(C(C)=O)cc1	3.3	6	-3%	2%	·	17	0%
CCCCCCC1(C)NC(=O)N(C(C)C(=O)Nc2ccc(N3CCOCC3)cc2)C1=O (stereo not given)	·	·	-9%	·	1.2%	-16	15%
Cc1ccccc1C(=O)NC1CCN(C(=O)Nc2ccccc2Cl)CC1	-0.9	·	10%	7%	-2.9%	-16	16%
O=C(N/N=C/c1cc2c(cc1[N+](=O)[O-])OCO2)c1ccccn1	·	11	7%	·	-4.0%	·	-3%
O=C(C[C@@H]1C/C=C\C[C@H](NC(=O)OCC2c3ccccc3-c3ccccc32)C(=O)OC[C@H]2CCCN2C1=O)N[C@H](CO)Cc1ccccc1	·	-3	-12%	·	0.3%	·	·
Cc1cc(=O)n(C(NC(=O)c2ccccc2)C(=O)c2ccccc2)cn1 (stereo not given)	0.4	6	?	-12%	1.4%	-19	-16%
N#Cc1c(-c2ccccc2)nc(N2CCCCCC2)[nH]c1=O	-0.8	11	7%	25%	-3.4%	19	?
CC(NC(=O)C(=O)N/N=C/c1ccc(Cl)cc1)c1ccccc1 (stereo not given)	0.7	-4	11%	18%	·	24	-35%[inhibitor]
O=C(CSc1nnc2ccccn12)c1ccccc1	5.3	1	2%	18%	-0.6%	-2	23%
CCOc1ccc2nc(N/C(N)=N/C(=S)Nc3cccc(OC)c3)nc(C)c2c1	7.5	-8	2%	17%	·	-2	4%
O=C(COC(=O)COc1ccccc1Cc1ccccc1)Nc1cccnc1Cl	0.1	11	-29%	0%	109%	12	-5%
Cc1ccc(C)c(NC(=S)c2nc3ccccc3s2)c1	-0.1	?	-6%	?	1.0%	4	-6%
Cc1cccc(N2CCN(C(=O)c3c(Cl)cnn3C)CC2)c1C	·	-2	8%	-4%	-1.9%	-7	-4%[15.4 µM]
COc1cccc(CN(C)C(c2ccccc2)c2ccccc2)c1OC	-1.4	26	-10%	-15%	·	9	?
c1ccc(-c2nnc(CSc3nnc(-c4ccncc4)n3Cc3ccco3)o2)cc1	0.4	-2	-1%	7%	-0.9%	1	?
Cn1c(CNC(=O)c2ccccc2F)nnc1SCC(=O)NCc1ccccc1	0.4	·	3%	8%	-0.2%	1	0%
O=C(Cn1ncc2c3ccccc3n(Cc3cccc(Cl)c3)c2c1=O)NCc1ccccn1	·	·	-8%	-16%	-5.4%	8	2%
COc1ccc2cc(CCNC(=O)c3ccc(S(=O)(=O)N4CCOCC4)cc3)c(=O)[nH]c2c1	-13	-21	-1%	6%	-4.4%	-1	?
O=C(NCCc1ccc(Cl)cc1)c1ccc2ccccc2n1	-2.0	31	-5%	-22%	·	-3	-2%[15.4 µM]
COc1ccc(NC(=O)c2c(C(F)(F)F)nn(C)c2SCc2ccccc2Cl)cc1	6.5	5	-13%	4%	1.1%	1	28%
COCCN(CCOC)C(=O)CSc1ccc(S(=O)(=O)N2CCN(C)CC2)cn1	·	·	6%	·	-0.2%	-1	2%
Cc1nc2ccccc2c(=O)n1/N=C/c1cccs1	-3.1	3	-3%	11%	·	15	-3%
O=C(NCCOc1ccccc1)c1n[nH]c(=O)c2ccccc12	-0.9	7	20%	5%	-1.0%	-32	-5%
CC(=O)N1CCN(C(=O)c2ccc(-c3ccccc3Cl)o2)CC1	·	·	-10%	·	-0.3%	?	?
COc1ccc(C(=O)N2CCC(C(=O)Nc3ccc(OC)c(OC)c3)CC2)cc1	-3.4	2	7%	89µM*	-1.9%	7	9%
Cc1ccc(NC(=O)CSc2nnc(-c3ccncc3)n2N)cc1C	-0.4	3	6%	6%	-0.7%	3	5%
COC(=O)[C@@H](Cc1c[nH]c2ccccc12)NCc1ccc(B(O)O)cc1	·	25	18%	·	-0.5%	·	·
O=C1C=CC(=Nc2ccc3c(c2)C(=O)c2ccccc2-3)O1	·	?	-4%	·	·	·	-15%
CCCCn1c(N)c(N(CCC(C)C)C(=O)c2ccc3c(c2)OCCO3)c(=O)[nH]c1=O	·	8	11%	·	13%	-1	7%[15.4 µM]
COc1ccc(Cn2nnnc2C(c2cc3cc(C)cc(C)c3[nH]c2=O)N2CCOCC2)cc1 (stereo not given)	-3.2	4	-5%	-7%	?	-13	-14%
O=C(/C=C/c1ccncc1)c1ccc(NC(=O)c2ccccc2F)cc1	1.7	0	-3%	5.6µM*	·	5	9%[15.4 µM]
COc1ccc(N(C)C(=O)C2CCCN2S(=O)(=O)c2cccc3nsnc23)c(OC)c1 (stereo not given)	·	·	-3%	14%	2.9%	23	-21%
O=C(N=Nc1c(O)n(Cc2ccccc2)c2ccccc12)c1cc2ccccc2cc1O	6.7	-4	4%	?	-1.0%	2	11%[15.4 µM]
O=C(/C=C/c1cccs1)Nc1ccc(Br)cn1	1.9	-1	6%	16%	·	-6	25%[15.4 µM]
CCN(CC)CCN(Cc1cc2cc(C)ccc2[nH]c1=O)C(=S)NCc1ccco1	3.0	-10	7%	56µM*	-19%	-9	7%
CC(=O)Nc1ccc(CN2CCN(CCc3ccccc3)C(CCO)C2)cc1 (stereo not given)	4.3	0	-13%	5%	·	3	3%
COc1ccc(C(=O)NCCCNC(=O)c2ccco2)cc1OC	-2.8	-6	6%	6%	·	3	2%
O=C(CCC(=O)N1CCSc2ccccc21)NCc1cccc(Br)c1	-1.9	1	-11%	-3%	1.1%	18	-32%[inhibitor]
O=C(CSc1nnnn1C1CC2CCC1C2)Nc1ccnc2ccccc12 (stereo not given)	-1.1	-3	-33%	-21%	-2.9%	23	4%
CC(=O)Nc1ccc2nc(NC(=O)CN3CCOCC3)sc2c1	1.7	·	3%	-8%	-3.9%	1	-18%
COc1ccc(CCNC(=O)CSc2ccccc2)cc1OC	5.1	15	6%	4%	2.9%	5	?
CCCCCCOC(=O)C(C#N)c1nc2ccccc2nc1N1CCCCC1 (stereo not given)	-25	-12	-7%	-5%	-4.7%	·	-25%
Cc1cc(C)nc(NC(=O)c2cc(-c3ccc(C)s3)nc3ccccc23)c1	7.7	43	2%	-9%	16µM*	11	-49%
CCCCNc1nnc(SCC(=O)c2c[nH]c3ccccc23)s1	3.1	-8	-10%	3%	0.6%	12	3%
Cc1ccc(S(=O)(=O)Nc2ccc3cc([N+](=O)[O-])ccc3c2[N+](=O)[O-])cc1	·	-16	-20%	·	·	·	18%

More results
SMILES	Menin MLL FP FL	CtBP-E1A inh	gsp antag	Sfp inh	ClpP mod	TRPV1 potentiator	gsp ag
COCCCNC(=O)C1=CCN(S(=O)(=O)c2ccc(OC)cc2)CC1	·	3	12%	9%	-2.6%	3	23%
O=C(Nc1nc2ccccc2[nH]1)C1CC1	-7.6	6	17%	19%	0.2%	5	-12%[15.4 µM]
Cc1ccc(OCC(=O)Nc2cccc(S(=O)(=O)N3CCCC3)c2)cc1C	·	1	·	·	-0.4%	·	-1%
COc1ccc(C(=O)N[C@H](C(=O)Nc2nc3c(s2)CCCC3)C(C)C)cc1	3.7	-5	9%	1%	-0.4%	-5	-20%
CCOC(=O)/C=C/C(=O)OCC(=O)Nc1ccc(OC)c(Cl)c1	3.2	·	1%	-8%	1.6%	?	0%
